Screening results as filed in PubChem.
PINK1 modulator = PINK1 expression modulation; PINK1 immunofluorescence, high-content cytometry, 24 h; Potency, µM (series often up to 76.6 µM), for inactives: top-dose activation (PINK1 increase), usual class: activators; 0.2% of 410,000 active; AID 624263; active = well fitted activation curve with a large enough effect; inconclusive = small, poorly fitted or top-dose-only effect; inactive = flat fitted curve, though single readings scatter; cell line not stated here;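 also: potency is read from the fitted curve at half-maximal effect; % of control where 0% means no effect; nearly all actives have a fitted effect of over 65% in size; a mitochondrial uncoupler was the plate control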
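Cells are seeded, rested 12 hours, then given compound at five concentrations or DMSO for 24 hours. After fixation, blocking and antibody staining, PINK1 amount and mitochondrial localization are scored; CCCP serves as control.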
ClpP mod = qHTS Assay for Activators of ClpP; ATP-dependent Clp protease proteolytic subunit (Bacillus subtilis (strain 168)), P80244; purified B. subtilis ClpP, FRET peptide cleavage, 20 min; Potency, µM (series often up to 57.5 µM), inactives show top-dose activity change, negative = active; 1.9% of 340,000 active; AID 651965, 2013; active = well fitted falling curve with a large enough effect; inconclusive = small, poorly fitted or top-dose-only effect; inactive = no such curve, though single readings can be large or run the other way; also: potency is read from the fitted curve at half-maximal effect; the source files actives as falling curves though it sought activators and does not explain the sign; nearly all actives have a fitted effect of over 65% in size; many hits overshoot -100%
Target sequence (P80244 whole entry, looked up): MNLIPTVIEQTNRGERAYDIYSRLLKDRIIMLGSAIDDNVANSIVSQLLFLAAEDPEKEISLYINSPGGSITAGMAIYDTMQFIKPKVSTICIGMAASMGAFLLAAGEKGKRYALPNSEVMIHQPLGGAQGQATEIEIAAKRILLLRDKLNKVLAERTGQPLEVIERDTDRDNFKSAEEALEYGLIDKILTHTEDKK
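Buffer: 100 mM Tris/HCl pH8, 100 mM KCl, 0.05% low protease BSA, 2.5% glycerol, 0.01% Tween-20. ClpP 10 microg/mL final; 20 min RT; delta FRET normalized to ADEP and DMSO controls.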
gsp ag = activates gsp, the McCune-Albright syndrome mutation | gsp mutant cells, cAMP HTRF, 30 min; control for the full effect not named in the record | 0.13% of 340,000 active | Potency, µM (titrated, usually from 76.9 µM), for inactives: at the top dose activation (cAMP increase), usual class: activators; active = well fitted activation curve with a large enough effect; inconclusive = small, poorly fitted or top-dose-only effect, or another doubt; inactive = no such curve, though single readings can be large or run the other way; cell line not stated here;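 also: phosphodiesterase inhibitor Ro 20-1724 added with compounds to block cAMP breakdown; potency is read from the fitted curve at half-maximal effect; nearly all actives have a fitted effect of over 60% in size; about a fifth of the inactives were tested at one dose only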
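Cells stably selected in G418 were plated at 2000/well, grown 16-24 hr, then given compounds in DMSO with the PDE inhibitor […] (300 uM solution added) for 30 min at 37C; cAMP was read by HTRF.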
Menin MLL FP FL = displaces fluorescein MLL peptide from human menin; 290,000 tested, under 10 active; Fluorescence polarization, fluorescein-MLL peptide displacement from menin; FP activity change, % at 61.4 µM; inconclusive = falling polarisation curve, or a change in total fluorescence; inactive = total fluorescence flat and polarisation flat or rising; no compound was filed as active; the % refers to the polarisation; negative = inhibition;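 also: % of control where 0% means no effect; inhibitors lower the polarisation; unlabelled MLL peptide was the positive control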
gsp antag = gsp mutant antagonism; gsp-mutant cells, cAMP HTRF, 30 min; control for the full effect not named in the record; 0.4% of 340,000 active; AID 624288; Potency, µM (top dose mostly 76.9 µM), for the others: top-dose activity change, negative = inhibition, usual class: inhibitors; active = falling curve of any shape with a large fitted effect; inconclusive = falling curve, mostly with a smaller effect; inactive = flat or rising curve; cell line not stated here;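 also: intracellular cAMP measured with PDE inhibitor Ro 20-1724 present during compound exposure; potency is read from the fitted curve at half-maximal effect; % is scaled to controls: 0 for no effect and ±100 for the full control effect; nearly all actives have a fitted effect of over 65% in size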
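HTRF cAMP measurement after 30 min RT detection following 30 min, 37C compound treatment alongside […] (added as 300 uM solution) in G418-selected cells seeded at 2000/well and grown 16–24 h.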
Sfp inh = inhibitors of Bacillus subtilis Sfp phosphopantetheinyl transferase; Q9F4F7; Potency, µM, for the others: max response, negative = inhibition, usual class: inhibitors; Biochemical Sfp PPTase activity, qHTS; 3.5% of 310,000 active; AID 1490; active = well fitted inhibition curve with a large enough effect; inconclusive = small, poorly fitted or top-dose-only effect, or another doubt; inactive = no such curve, though single readings can be large or run the other way;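 also: the enzyme is Sfp with the accession as filed and its product quenches rhodamine fluorescence; potency is read from the fitted curve at half-maximal effect; 0% = enzyme reaction without inhibitor and -100% = no enzyme wells; top concentration of the series not given in the record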
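Sfp 15 nM + cpd, 15 min RT; start w/ rhodamine-CoA 5 uM, BHQ-2-YbbR 12.5 uM (final); 50 mM Hepes pH 7.6, 10 mM MgCl2, 0.01% NP-40, 0.01% BSA; read 525/598 nm at 0 and 30 min.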
D2 agonist = human D2 receptor agonism in beta-arrestin assay; DiscoveRx PathHunter D2 beta-arrestin, luminescence, 90 min; 100% = 57 uM dopamine signal; 0.084% of 360,000 active; P14416; activation, % (test concentration not listed); in the data active = activation above about 40%; inconclusive = about 15% to 40%; inactive = below about 15%; also: compound concentration not given in the record; the text of the record calls up to 30% inactive
Target sequence (P14416 whole entry, looked up): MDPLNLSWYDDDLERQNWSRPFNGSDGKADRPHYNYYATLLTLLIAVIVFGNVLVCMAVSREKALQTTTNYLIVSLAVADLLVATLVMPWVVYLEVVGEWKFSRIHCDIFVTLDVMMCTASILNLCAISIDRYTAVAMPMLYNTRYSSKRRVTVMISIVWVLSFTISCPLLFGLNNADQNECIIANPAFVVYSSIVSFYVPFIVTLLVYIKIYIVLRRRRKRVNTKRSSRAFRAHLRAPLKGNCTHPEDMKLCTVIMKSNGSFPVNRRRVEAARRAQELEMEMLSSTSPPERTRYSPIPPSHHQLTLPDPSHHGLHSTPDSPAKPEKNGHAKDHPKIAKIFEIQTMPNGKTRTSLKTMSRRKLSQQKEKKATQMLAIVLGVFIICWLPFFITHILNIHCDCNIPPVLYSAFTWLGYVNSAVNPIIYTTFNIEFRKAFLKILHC
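DiscoveRx PathHunter D2 beta-arrestin cells (2,100/well) attached overnight, then compound-stimulated 90 min at 37 C in HBSS/10 mM HEPES/0.1% Tween-20 buffer; beta-galactosidase complementation read by luminescence after 1 h at ambient temperature. Dopamine 57 uM final (EC100) as control.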
Numbers without * were called inactive; ? = inconclusive; nt = not tested or not shown; & = joins results of further samples; [ ] = another dose, or the depositor's remark.

SMILES,PINK1 modulator,ClpP mod,gsp ag,Menin MLL FP FL,gsp antag,Sfp inh,D2 agonist
O=C(/C=C/c1cccc([N+](=O)[O-])c1)N1CC[C@@]2(O)CCCC[C@H]2C1,0.6%,nt,-18%[15.4 µM],5.7,5%,7%,-4.6
CC1COc2ccccc2N1C(=O)c1ccc(F)cc1 (stereo unspecified),-2.4%,-0.5%,?,-0.7,5%,-2%,-3.0
O=C(/C=C/c1ccc([N+](=O)[O-])cc1)OCc1cnc(-c2ccccc2)o1,8.8%,nt,-3%[15.4 µM],-13,11%,1%,0.6
CCCC1(C(=O)OC)NC(c2ccc(OC)c(OC)c2)C2C(=O)N(c3ccc4c(c3)OCO4)C(=O)C21 (stereo unspecified),-4.7%,-1.5%,-79%[inhibitor],-1.0,5%,7%,0.4
COc1cccc(CNC(=O)c2ccccc2-c2ccccc2C(=O)O)c1,0.1%,-1.1%,14%,2.4,4%,17%,-7.4
O=C(COC(=O)CCSc1ccccc1)NCc1ccccc1Cl,-0.9%,1.0%,-32%[inhibitor],6.8,1%,10%,-1.8
Cc1cccc(NC2CCCCC2NS(=O)(=O)c2ccccc2)c1 (stereo unspecified),5.1%,2.7%,20%,-5.0,7%,2%,-0.3
CN(CCc1ccccc1)C(=O)c1ccc(NC(=O)Cc2cccc(NC(=O)C3CCN(C(=O)CCc4ccccc4)CC3)c2)cc1,0.9%,-3.0%,nt,nt,1%,nt,-2.3
O=C(CSc1nc2ccccc2c(=O)n1-c1ccc(F)cc1)Nc1ccc(Cl)c(S(=O)(=O)N2CCOCC2)c1,3.1%,-15%,10%,10,-4%,13%,-0.5
CCc1cc(C(=O)OC)c(NC(=O)CC2Nc3cc(C)c(C)cc3NC2=O)s1 (stereo unspecified),?,-1.6%,-25%,1.9,8%,21%,-1.6
COCCNC(=O)Cn1ccc2cc(S(=O)(=O)N3CCCCCC3)ccc21,1.4%&1.0%,-3.1%&0.6%,4%,nt,7%,10%,5.0
COc1ccc2c(C)cc(SCC(=O)Nc3c(C)n(C)n(-c4ccccc4)c3=O)nc2c1,1.3%,25µM*,-3%,0.4,-6%,3%,-0.7
CCN(CC)CCCNC(=O)c1c(O)c2cc(F)cc3c2n(c1=O)C(C)CC3 (stereo unspecified),4.2%,3.7%,8%,1.0,20%,2%,-6.0
CN(C(=O)COC(=O)COc1ccccc1F)C1CCS(=O)(=O)C1 (stereo unspecified),1.6%,-0.2%,-2%,0.4,5%,7%,-0.6
Cc1ccc(S(=O)(=O)NCC(=O)N2CCOCCOCCOCC2)cc1,-1.2%,nt,-14%,-2.2,-1%,20%,-0.5
O=C(O)c1cc(-c2ccc(Cl)c(Cl)c2)n(-c2ccc(F)cc2)n1,0.0%,1.1%,16%,1.4,-14%,12%,-2.8
O=C(Cn1nnc(-c2ccccc2)n1)OC1CCOC1=O (stereo unspecified),-0.5%,-0.4%,-5%,3.3,?,-4%,-3.1
C#CCNC(=O)C1=C[C@@H](c2coc3ccccc3c2=O)[C@H](CCCO)[C@@H](OCC)O1,0.2%,-0.7%,nt,4.8,5%,15%,-2.5
O=C(NNC1=NCCCCC1)c1cccc([N+](=O)[O-])c1,-0.6%,nt,-35%[inhibitor],-0.9,-1%,14%,0.0
COc1cccc(CN2CC(C(=O)NCCSc3nnnn3C)CCC2=O)c1 (stereo unspecified),0.8%,0.8%,-20%,nt,8%,12%,-3.2
Cc1[nH]c2ccccc2c1C(=O)COC(=O)C1CC(O)CN1S(=O)(=O)c1ccc(Cl)cc1 (stereo unspecified),1.2%,nt,7%[15.4 µM],nt,-6%,nt,1.5
Cc1ccc(-c2nnc3ccc(SCC(=O)N4CCc5ccccc54)nn23)cc1,-0.9%,-0.8%,?,0.7,-1%,16%,-5.5
CN(c1ccc(OCC(=O)OCc2nnc(-c3ccccc3)o2)cc1)S(=O)(=O)c1ccc(Cl)cc1,2.9%,1.7%,-29%,nt,10%,nt,-4.0
COc1cccc(C(=O)N2CCC(O)(c3cccnc3)CC2)c1,0.0%,nt,-4%[15.4 µM],-4.5,7%,26%,-4.5
O=C(C1CCN(c2nc(-c3ccccc3)nc3c2CCC3)CC1)N1CCCC1,0.1%,-4.6%,8%,nt,-22%,nt,0.3
CCOC(=O)c1cnc(N2CCN(c3ccccc3)CC2)[nH]c1=O,0.8%,nt,1%,-2.4,3%,17%,-3.8
CCCCCc1c(C)nc(N2CCc3ccccc3C2)[nH]c1=O,9.7%,0.6%,-70%[inhibitor],3.0,22%,2%,-4.4
COc1cc(NC(=O)c2sc3ncn(CC(=O)N4CCC(C)CC4)c(=O)c3c2C)cc(OC)c1OC,1.8%,2.4%,-19%,-1.3,-18%,14%,4.0
C=CCNC(=O)[C@H]1N2C(=O)c3ccccc3C2SC1(C)C (stereo partly specified),0.6%,nt,-8%,5.3,0%,3%,0.3
Cc1ccc2nc(N/C(=N/S(=O)(=O)c3ccc(F)cc3F)c3ccccc3)sc2c1,-1.0%,nt,6%[15.4 µM],0.0,-9%,2%,0.0
COc1ccc(OC)c(-n2nnnc2SCC(=O)Nc2nc(C)c(C)s2)c1,2.5%[38.3 µM],0.4%,-2%,6.7,11%,8%,-2.4
O=C(Nc1cnn(Cc2ccc(Cl)cc2)c1)c1ccc([N+](=O)[O-])cc1,0.8%,-0.5%,11%,-0.3,-5%,-1%,12
COc1ccccc1OCC(=O)Nc1c2c(nn1-c1ccc(F)cc1)CS(=O)(=O)C2,11%,1.9%,-29%,-1.7,0%,18%,-1.6
CNC(=O)N1CCN(C(=O)NC)CC1,0.1%[38.3 µM],-1.4%,5%,-1.4,14%,12%,-1.3
CC(=O)c1cccc(NCC(=O)Nc2cc(S(=O)(=O)N3CCCCC3)ccc2C)c1,3.6%,-3.0%,-5%,nt,-10%,-10%,-2.1
CCOC(=O)/C(C#N)=C/N=c1ccc(C)cn1C,1.2%,nt,?,0.9,-2%,7%,4.6
O=C(NC1CCCCC1)N1CCN(CCc2ccccc2)CC1,2.6%[38.3 µM],0.0%,-3%,0.4,15%,5%,0.6
CCc1cc(=O)oc2cc(OCC(=O)NCCCN3CCCC3=O)ccc12,0.1%,3.9%,?,nt,7%,10%,-0.5
Cc1ccc(S(=O)(=O)Nc2cccc(-c3ccc4nnc(C)n4n3)c2)s1,-1.0%,nt,8%[15.4 µM],-1.9,0%,9%,2.4
N#CCCN1CCN(C(=S)c2ccc(-c3ccc(Cl)c(Cl)c3)o2)CC1,-0.4%,6.3%,0%,?,2%,50µM*,-1.0
O=C(COC(=O)CCC(=O)c1cccs1)Nc1ccccc1[N+](=O)[O-],1.6%,1.5%,-18%,-5.8,7%,10%,-5.3
COc1ccccc1OC(=O)c1cc2ccccc2oc1=O,-0.2%,nt,-18%,?,-6%,22%,11
O=C(CCc1nnc(C2(c3ccc(Cl)cc3)CCC2)o1)NCCCn1cccn1,-0.1%,nt,9%,-1.4,-1%,5%,-6.1
CC(C)C1C(=O)N(Cc2cn(CCC3OCCO3)nn2)CCS(=O)(=O)N1Cc1ccc(-c2ccc(F)cc2)cc1 (stereo unspecified),1.0%,0.5%,39%,nt,nt,nt,-1.1
c1cncc(-c2cn(C[C@H]3CC[C@H](Cn4cc(-c5cccnc5)nn4)O3)nn2)c1,1.6%,0.4%,nt,nt,8%,nt,-1.1
Cc1noc(C)c1NC(=O)N(C)C[C@@H]1Oc2c(NC(=O)NC(C)C)cccc2C(=O)N([C@@H](C)CO)C[C@@H]1C,-0.6%,-17%,nt,nt,13%,nt,-0.4
Cc1ccc(NC(=O)c2nsc(Cl)c2Cl)cc1,-0.6%,-19%,4%,1.5,6%,-1%,-5.1
O=C(CN1C(=O)C2C3C=CC(C3)C2C1=O)OCC(=O)c1ccc(Cl)cc1 (stereo unspecified),0.1%,0.3%,6%,-0.9,-3%,2%,-6.4
NC(=S)N/N=C/c1cc([N+](=O)[O-])ccc1Cl,-0.1%,0.3%,26%,1.7,-4%,-13%,-8.0
Cn1c(/N=C/c2c[nH]c3ccccc23)nc2ccccc21,-0.6%,0.0%,3%,-1.1,-2%,4%,-1.9
Cc1cc(Br)ccc1NC(=O)CN(C)C(=O)CSC(=S)N1CCCC1,1.0%,3.2µM*,-12%,nt,0%,nt,-2.9
O=c1cc(N2CCN(c3ccccc3Cl)CC2)[nH]c(=O)n1Cc1ccc(F)cc1,13%,nt,-5%[15.4 µM],-1.2,15%,0%,1.0
N#C/C=C/C(=C\Nc1ccc(Cl)cc1)S(=O)(=O)c1ccccc1,-0.1%,nt,3%,1.6,0%,2%,-1.2
COc1ccc(C2C(C#N)=C(N)Oc3cc4c(cc32)OCO4)cc1 (stereo unspecified),-6.8%[38.3 µM],-5.0%,3%,1.6,-26%,2%,2.4
Cc1cc(NC(=O)Cn2nc(C(=O)O)c3ccccc3c2=O)ccc1Br,7.0%,nt,-19%[15.4 µM],9.0,nt,2%,1.5
Oc1ccc2ccccc2c1N=Nc1ccccc1F,0.3%,?,-2%,-3.3,-9%,4%,-0.9

Carrying on:
SMILES,PINK1 modulator,ClpP mod,gsp ag,Menin MLL FP FL,gsp antag,Sfp inh,D2 agonist
CSc1ccccc1C(=O)N1CCN(c2cccc(Cl)c2)CC1,-0.7%,nt,-1%[15.4 µM],-3.1,-16%,-2%,3.5
Cc1nccn1CCCNC(=O)C1CCC(=O)N(Cc2ccccc2F)C1 (stereo unspecified),-0.8%,1.0%,15%,nt,5%,-5%,-4.2
CN(C)CCC(=O)N1c2ccccc2Sc2ccc(Cl)cc21,0.4%,nt,9%,0.3,9%,3%,3.5
COc1cccc(-c2c(C(=O)N/N=C/c3ccc(C)s3)nnn2-c2nonc2N)c1,0.8%,-2.8%,-9%,1.5,?,20%,-7.1
